Source: PubChem BioAssay (several laboratories)
Mtb hypoxia rep – PubChem AID 1159583; M. tuberculosis hypoxia-regulated fluorescent reporter, fluorescence; fluorescence inhibition, % (no concentration beside the values); 300,000 compounds, 0.1% hits;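 active means 35 to 45% if threefold the growth effect, above 45% if 1.5-fold the growth effect; inactive means the rest, general growth blockers included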;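 further: wells of about 50 µL received 100 nL stock; 0% = vehicle wells and 100% = reference inhibitor wells; whole bacteria with a GFP reporter of the hypoxia response; strong numbers were not always called active; many hits fall short of the cut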
Bead autofluor – counter-screen for toxin protease inhibitors: compound fluorescence; compound autofluorescence counterscreen, microsphere flow cytometry; active compounds read high; fluorescence intensity (no concentration beside the values); 360,000 compounds, 3.1% hits; AID 624483;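 active means at least 3 SD above the mean of all compounds, about 16000 in these data; inconclusive means too few beads counted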;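 further: 100 nL of 1 mM stock went into each well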
ugtP null kill – growth inhibition of ugtP-null S. aureus, primary screen, RN4220 ugtP deletion, OD600. 16 h; some inactives read as strong as hits. growth inhibition, % (no concentration beside the values). 330,000 compounds, 0.54% hits;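 active means z-score under -3 and OD600 up to 0.15 on both plates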;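 further: plate controls were untreated wells for no effect and antibiotic for full effect; wells of about 80 µL received 100 nL stock; the first replicate is given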
RN4220 kill – growth inhibition of S. aureus RN4220, primary screen, OD600. inhibition, % (test concentration not listed). 330,000 compounds, 0.33% hits. AID 1259311, 2017. 16 h;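 active means z-score of -3 or lower and OD600 up to 0.18 on both plates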;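 further: plate controls were untreated cells for no effect and reference antibiotic for full effect; stock transfer was 100 nL into about 80 µL; one replicate is shown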
PrP UTR inh – inhibition of PrP 5' UTR reporter expression | 340,000 compounds, 0.35% hits | cell-based PrP 5' UTR mRNA reporter, plate reader | inhibition, % (test concentration not listed);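 active means every replicate at 50% or more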;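 further: 0 = median of the neutral control wells; tested in H4 reporter cells; numbers are from one replicate; inactives centre near -14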
BJeLR viability – MLPCN primary cell-based screen for lethality selective to Ras in HRASV12 cells | inhibition, % (no concentration beside the values) | 300,000 compounds, 0.17% hits | BJeLR (HRASV12) viability, CellTiter-Glo ATP luminescence, 48 h; reference of the scale not given here;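 active means replicate mean above 50%; inconclusive means above 50% but judged a plate artefact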;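 further: 50 nL library stock added to about 25 µL; numbers are from one replicate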
Mtb hypoxia rep growth – also measured in Mtb hypoxia rep; calls as there; growth inhibition, %; measured here: M. tuberculosis growth (absorbance);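 0% = vehicle and 100% = reference antibiotic; read after six days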
Starred values were filed as active, the others as inactive; u = inconclusive; x = no result given.

SMILES | Mtb hypoxia rep | Mtb hypoxia rep growth | Bead autofluor | ugtP null kill | RN4220 kill | PrP UTR inh | BJeLR viability
Cc1ccc(NC(=O)c2cc(NC(=O)C3CC=CCC3C(=O)O)ccc2N2CCOCC2)cc1Cl (configuration not stated) | 5 | 6 | 9743 | -6 | 8.1 | -39 | 7
CC(=O)Nc1ccc(NC(=O)[C@@H]2CCCC[C@@H]2C(=O)O)cc1 | x | x | 2688 | x | x | -21 | 1
CC(C)c1ccc(NC(=O)CSc2nc3ncccc3[nH]2)cc1 | -2 | 2 | 5862 | 4 | -1.0 | -18 | 6
COC(C[C@H]1O[C@H]1C(=O)COCc1ccccc1)OC | x | x | 4175 | x | x | -24 | -5
Cc1cc(C)cc(N=c2c([N+](=O)[O-])nn(-c3ccc4c(c3)OCCO4)n2O)c1 | 14 | 7 | 4154 | 26 | -11 | 2 | 13
COc1ccc(/C=C/C(=O)OCc2cc(=O)n3c(n2)sc2ccccc23)cc1 | x | x | 6889 | x | x | 0 | 1
O=C(CCN1CCCCC1)NN=Cc1c[nH]c2ccccc12 | 1 | 15 | x | 1 | -2.0 | x | x
COc1ccc(C)cc1NC(=O)CSc1nc(SC)ns1 | x | x | 2692 | 1 | 2.1 | -7 | -2
COc1ccc(CC(=O)c2ccc(OC)c(OC)c2)cc1 | 7 | 3 | 2115 | 5 | 3.1 | -10 | -13
Cc1ccc(OCC(=O)c2cc(C)n(C3CC3)c2C)c([N+](=O)[O-])n1 | 6 | 6 | 10064 | 3 | 4.6 | -19 | 2
CCOc1ccccc1NC(=O)c1ccccc1NC(=O)c1ccco1 | 13 | 4 | 3620 | -15 | 4.9 | -13 | -3
Cc1cccc(NC(=O)COc2ccc(C=Cc3[nH]c(=O)[nH]c(=O)c3[N+](=O)[O-])cc2)c1 | -1 | 14 | x | 1 | -2.6 | x | x
Cc1cc(OCC(=O)NCCN2CCOCC2)cc(C)c1Cl | -1 | -3 | 4448 | -3 | 4.7 | 2 | -10
N#CCCn1cc(C=NNC(=O)c2ccncc2)c(-c2ccc(F)cc2)n1 | 12 | 5 | x | 5 | 1.9 | x | x
Cc1[nH]c(=O)[nH]c(=O)c1S(=O)(=O)Nc1cccc(C(F)(F)F)c1 | -6 | 1 | 3719 | 6 | 4.3 | -29 | -2
COCc1cc(=O)[nH]c(SCC(=O)Nc2ccccc2)n1 | 4 | 1 | 22752* | 2 | 0.8 | -10 | 6
CC(C)c1ccccc1OCC(=O)Nc1ccccc1C(=O)N1CCOCC1 | 2 | 1 | 5842 | 4 | 1.1 | -12 | 4
CC(OC(=O)CSc1ccc([N+](=O)[O-])cc1)C(=O)NCc1ccccc1 (configuration not stated) | 3 | 1 | 5648 | 6 | 2.8 | -4 | 0
Cc1ccc(NC(=O)c2ccc3ccccc3n2)nc1 | 9 | 6 | 4740 | 0 | 9.6 | -85 | 3
CC(=O)Nc1ccc(NC(=O)/C(=C/c2ccco2)NC(=O)c2ccccc2)cc1 | 8 | 5 | 5034 | 2 | 1.0 | -36 | -4
COC(=O)c1ccccc1C(=O)N1CCOCCN(C(=O)c2ccccc2C(=O)OC)CCOCC1 | 9 | -1 | 2125 | 3 | 0.1 | -24 | 0
COc1ccc([N+](=O)[O-])cc1NC(=O)CCCOc1ccccc1 | 5 | 0 | 2158 | 1 | 1.7 | -11 | -11
O=C(CN(CC1CCCO1)C(=O)CNS(=O)(=O)c1ccc(F)cc1)NCc1ccccc1 (configuration not stated) | 13 | 1 | 5736 | 8 | 2.0 | 3 | -23
COc1ccc2cc(C(=O)Nc3ccccc3)sc(=O)c2c1OC | -9 | -8 | 2128 | -3 | 0.4 | -24 | -2
O=C(CCc1nc2ccccc2c(=O)[nH]1)N1CCN(C/C=C/c2ccccc2)CC1 | 4 | 7 | 3887 | -4 | -2.8 | -7 | 10
O=C(NCC1CCCO1)c1csc2c1CCCC2 (configuration not stated) | x | x | 8930 | 5 | 6.4 | 2 | 3
O=C1Cc2cc(S(=O)(=O)Nc3cccc([N+](=O)[O-])c3)cc3c2N1CCC3 | 4 | -1 | 4239 | 8 | 6.5 | 4 | 5
Cc1cc(Br)c(NC(=O)COC(=O)CSc2nnc(-c3ccc(Cl)cc3)o2)c(Br)c1 | 0 | 11 | 2171 | -1 | -0.7 | -14 | -10
c1ccc2c(-c3cn4ccccc4n3)c[nH]c2c1 | 0 | -2 | x | -9 | 2.8 | x | 3
CNc1ccc(OC(F)F)cc1C(=O)c1ccccc1 | 15 | 4 | 8394 | 23 | 0.2 | -30 | -14
COCCn1nnnc1C(c1ccc(C(F)(F)F)cc1)N1CCOCC1 (configuration not stated) | 0 | 1 | 3886 | -1 | 5.5 | 3 | -7
O=C(O)CCC1(c2ccccc2)NC(=O)NC1=O (configuration not stated) | 14 | 4 | 3931 | -2 | 5.1 | -18 | -7
Cc1c(Cl)c([N+](=O)[O-])nn1CCCC(=O)Nc1cc(Oc2ccccc2)cc([N+](=O)[O-])c1 | -1 | 5 | 2548 | -5 | 2.6 | -5 | 2
CSc1ccc(C#N)cc1NC(=O)c1ccc(Cl)nc1 | 4 | 11 | 4736 | 4 | 2.8 | -12 | -6
CC(C)NCCCOc1ccc(C(C)(C)c2ccccc2)cc1 | x | x | 2354 | 12 | 4.7 | -2 | 0
N#Cc1c(-c2cccs2)cc(C2CC2)nc1SCC(N)=O | x | x | 4172 | 8 | 1.8 | -11 | -6
O=C(c1ccc(S(=O)(=O)N2CCOCC2)cc1)N(c1ccccn1)C1CCCCC1 | -1 | -3 | 2837 | 2 | 0.2 | -13 | -13
COc1ccccc1CCn1cc(C#N)c(=O)[nH]c1=O | -7 | -6 | x | 4 | 3.3 | x | 3
Cc1nc(Nc2ccncc2)c2oc3ccccc3c2n1 | 0 | 8 | 7268 | -1 | -2.9 | -6 | 0
COc1ccc(/C=N/N2CCN(c3ccncc3S(=O)(=O)N3CCCCC3)CC2)cc1 | x | x | 4607 | x | x | -14 | 4
CC1CCCCN1c1ncnc2ccccc12 (configuration not stated) | 1 | 2 | 9507 | 9 | 3.1 | -3 | 9
O=C(NCc1nc2ccccc2[nH]1)C1=C[C@@H](C2CCCCC2)C[C@@H](OCCCCO)O1 | x | x | 4363 | x | x | -7 | -16
NC(=O)CC(NC(=O)Cc1ccc(Br)cc1)c1ccc(N2CCC(N3CCCC3)CC2)c([N+](=O)[O-])c1 (configuration not stated) | 10 | 9 | 2872 | -7 | 1.5 | 3 | -1
O=C(Nc1ccc(C(=O)NCCCN2CCCCC2)cc1)C1=CSCCO1 | -3 | 2 | 5516 | 4 | 1.1 | -14 | -11
COc1ccc(C(=O)c2oc3ccccc3c2N)cc1 | -1 | 7 | 20810* | -6 | 12 | -56 | 1
COc1ccccc1NC(=O)CCC(=O)N/N=C(/C)c1ccc(C)cc1 | x | x | 9341 | x | x | -21 | -2
COC(=O)N/N=C/c1cc(C)n(-c2ccccc2)c1C | x | x | 2371 | x | x | -42 | -3
Nc1cc(N2CCCCC2)c(Cl)cc1[N+](=O)[O-] | 6 | 14 | 21335* | -7 | 1.9 | -5 | 4
N#C/C(=C\c1ccccc1)c1ccccn1 | 12 | 7 | 3263 | 0 | 6.7 | -78 | 2
COc1ccc2[nH]c3c(=O)n(N=Cc4ccc(OC)c(CN5CCCC5)c4)c(C)nc3c2c1 | -9 | 8 | x | 1 | -6.9 | x | x
S=C1NC2=C(CCCC2=C2SCCCS2)C(c2ccccc2)N1 (configuration not stated) | x | x | 4466 | x | x | 2 | -7
Nc1nnc(CCN2C(=O)CSC2=O)s1 | -1 | 3 | 24168* | -2 | -2.1 | -30 | -1
CCCC(c1nnnn1Cc1ccc(OC)cc1)N1CCN(C(=O)c2ccco2)CC1 (configuration not stated) | -6 | 8 | 3345 | 0 | 6.2 | -30 | 5
Cn1c(=O)c(C(=O)NCc2ccc(F)cc2)c(O)c2ccccc21 | -7 | -4 | 4128 | 2 | 7.2 | -49 | 3
CCN(CC)C(=O)CSc1nc(N)c(C#N)c(-c2cccs2)c1C#N | -5 | 1 | 21936* | 3 | 2.3 | -1 | -2
CCN(Cc1ccccc1)C(=O)Cn1c(=O)oc2ccccc21 | 4 | 10 | 3353 | -6 | 2.5 | -12 | -1
OCc1nc2ccccc2n1CC(O)COc1ccccc1 (configuration not stated) | 5 | 10 | 9839 | -4 | 6.3 | -3 | 5
COCCNc1nc2c(c(=O)n(C)c(=O)n2C)n1Cc1cccc(C(F)(F)F)c1 | -9 | 4 | 3264 | -2 | -0.4 | -6 | 1
COc1ccc(-c2cc(-c3cccnc3)c(C#N)c(N)n2)cc1 | 7 | 6 | 4656 | 0 | 7.5 | -6 | 3
CC(C)Sc1nc2c(c(=O)[nH]c(=O)n2C)n1CC(O)COc1ccccc1 (configuration not stated) | 1 | 5 | 4553 | 1 | 3.3 | 2 | 8

5 entries from above, with values under each structure:
Value order – Mtb hypoxia rep | Mtb hypoxia rep growth | Bead autofluor | ugtP null kill | RN4220 kill | PrP UTR inh | BJeLR viability
> CCCC(c1nnnn1Cc1ccc(OC)cc1)N1CCN(C(=O)c2ccco2)CC1 (configuration not stated)
  -6 | 8 | 3345 | 0 | 6.2 | -30 | 5
> Cn1c(=O)c(C(=O)NCc2ccc(F)cc2)c(O)c2ccccc21
  -7 | -4 | 4128 | 2 | 7.2 | -49 | 3
> CCN(CC)C(=O)CSc1nc(N)c(C#N)c(-c2cccs2)c1C#N
  -5 | 1 | 21936* | 3 | 2.3 | -1 | -2
> CCN(Cc1ccccc1)C(=O)Cn1c(=O)oc2ccccc21
  4 | 10 | 3353 | -6 | 2.5 | -12 | -1
> OCc1nc2ccccc2n1CC(O)COc1ccccc1 (configuration not stated)
  5 | 10 | 9839 | -4 | 6.3 | -3 | 5

More structures
SMILES | Mtb hypoxia rep | Mtb hypoxia rep growth | Bead autofluor | ugtP null kill | RN4220 kill | PrP UTR inh | BJeLR viability
O=C(c1ccco1)N1CCN(C(=S)Nc2ccccc2C(F)(F)F)CC1 | 3 | 2 | 4263 | -6 | -0.9 | -4 | 11
Cc1ccc(N(CC(=O)N/N=C/c2cccnc2)S(=O)(=O)c2ccccc2)cc1 | x | x | 2672 | x | x | -2 | 1
O=C(CSc1nnc(CNc2ccc(F)cc2)n1Cc1ccco1)N1CCCC1 | 0 | -2 | 9389 | 2 | 3.0 | -12 | -6
CCCCCc1nnc(N)s1 | 2 | 1 | 16328* | 12 | 3.9 | -12 | 1
COc1ccc(CNC(=O)Cn2c(=O)n(CCC(=O)N3CCCCC3)c(=O)c3sccc32)cc1 | -6 | -1 | 4788 | 0 | 2.4 | -21 | 1
CCC(c1nnnn1Cc1ccc2c(c1)OCO2)N1CCN(c2ccc(OC)cc2)CC1 (configuration not stated) | x | x | 3435 | 11 | 4.8 | 9 | 3
Clc1ccc(CNC23CN4CN(CN(C4)C2)C3)c(Cl)c1 | x | x | 1942 | -1 | 2.9 | -24 | -2
CC(=O)c1c(COC(=O)c2ccccc2)nc2ccccc2[n+]1[O-] | 0 | 5 | u | -7 | 8.9 | -23 | -3
CN(C)Cc1cc(C(C)(C)c2cc(CN(C)C)c(O)c(CN(C)C)c2)cc(CN(C)C)c1O | -4 | 2 | 11957 | 2 | 0.1 | 8 | x
CN(Cc1cccc(Cl)c1)C(=O)C1CCN(C(=O)Nc2ccccc2)CC1 | 6 | 8 | u | 9 | 3.9 | -15 | 12
O=S(=O)(NC1=NCCCCC1)c1ccc(Cl)cc1 | 17 | 8 | 3270 | 2 | 0.4 | -5 | 1
CCN1C(=O)c2cccc3c(S(=O)(=O)NCc4ccco4)ccc1c23 | 3 | 2 | 10836 | -6 | 7.3 | -5 | 0
c1coc(-c2nc3c([nH]2)CCc2nonc2-3)c1 | 18 | 11 | 10561 | -1 | 0.9 | -28 | 7
O=C1CCCC(=NNC(=O)COc2ccc(Cl)cc2)C1 | -1 | 4 | x | 7 | 1.9 | x | x
O=C(COC(=O)C1CC1)Nc1ccc2[nH]c(=O)[nH]c2c1 | 6 | 14 | 3160 | 14 | 3.7 | -8 | 2
CCCCNC(=O)CCC(=O)N1CCN(C(c2ccccc2)c2ccccc2)CC1 | 12 | 12 | 4340 | 4 | -3.3 | -8 | -12
O=C(Nc1ccccc1C(=O)Nc1ccccc1C(=O)O)c1ccccc1 | 19 | 8 | 3877 | 35 | 32 | -17 | 1
CC(C)NC(=O)CN(C)S(=O)(=O)c1ccc(F)cc1 | 15 | 5 | 2474 | 4 | 5.9 | 2 | -2
